# HNF4A DNA FP: change in binding of human HNF4A to DNA, primary screen, biochemical, fluorescence polarization, FITC-DNA | AID 1224865, 2016 | Hepatocyte nuclear factor 4-alpha (Homo sapiens), P41235 | 360,000 tested, 0.3% active | 1 h | activity change, % at 10 µM; in the data active = activity change above about 30%, passing the limit was not always enough;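 note: controls were the assay level and a saturating level of protein; the project sought stronger binding though the title names inhibitors; some compounds called inactive have numbers as strong as hits; positive values seem to mean higher polarization but the record does not say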
# MLL AF4-AF9 inh: inhibitors of AF4 peptide binding to AF9, primary screen, biochemical, AlphaScreen, biotin-AF4 peptide, FLAG-AF9, single point. Protein AF-9 (Homo sapiens), P42568. inhibition, % at 10 µM. 350,000 tested, 0.47% active;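 active = every replicate reaching a set inhibition limit, whatever the replicate mean, cut at about 25% in these data; inconclusive = mean inhibition reaches that limit but some replicates miss it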;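 note: 0% = plate neutral control median and 100% = total signal loss; the record names both 10 and 1 µM as test concentration; the first replicate is given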
# Target sequence (P42568 whole entry, looked up): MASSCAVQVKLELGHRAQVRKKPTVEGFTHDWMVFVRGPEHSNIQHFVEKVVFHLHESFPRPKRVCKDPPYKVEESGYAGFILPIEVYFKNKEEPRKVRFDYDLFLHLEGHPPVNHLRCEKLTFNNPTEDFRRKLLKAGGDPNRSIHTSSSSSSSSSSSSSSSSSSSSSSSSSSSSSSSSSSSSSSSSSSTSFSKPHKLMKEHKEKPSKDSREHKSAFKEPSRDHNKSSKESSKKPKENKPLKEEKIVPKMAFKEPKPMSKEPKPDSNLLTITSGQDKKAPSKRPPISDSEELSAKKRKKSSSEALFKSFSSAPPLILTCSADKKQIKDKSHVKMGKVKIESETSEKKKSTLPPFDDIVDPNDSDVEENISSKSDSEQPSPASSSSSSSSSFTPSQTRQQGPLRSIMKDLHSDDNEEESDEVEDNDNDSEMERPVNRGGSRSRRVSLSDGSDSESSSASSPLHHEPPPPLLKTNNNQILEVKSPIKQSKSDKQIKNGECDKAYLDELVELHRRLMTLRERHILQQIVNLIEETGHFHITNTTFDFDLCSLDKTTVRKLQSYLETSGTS
# RanGTP-Impb inh: inhibitors of RanGTP-importin-beta interaction, primary screen, biochemical, FRET, CFP-Ran, YFP-importin-beta, homogeneous; Ran GTPase (GTP-bound) - importin-beta complex; cell-free CFP-Ran/YFP-importin-beta FRET ratio; inhibition, % (test concentration not listed); 300,000 tested, 1.1% active; AID 2216, 2009;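 active = most replicates above 15%; inconclusive = exactly half above 15%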;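 note: 0% = DMSO wells and 100% = Ran loaded with GDP instead of GTP; wells of about 40 µL received 100 nL stock; the first replicate is given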
# FGF22 binding: binders of human FGF22 protein, primary screen, FGF22 synaptogenesis inhibitor project, biophysical, thermal shift, single point; 340,000 tested, 1.5% active; recombinant FGF22 thermal shift, SYPRO orange fluorescence; percent of sucrose octasulfate shift, DMSO zero; calls only at 9.99 µM; Fibroblast growth factor 22 (Homo sapiens), Q9HCT0;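 active = melting point raised past a set limit in the mean and every replicate; inconclusive = no clear call; three in four hits are not shown here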
# Target sequence (Q9HCT0 whole entry, looked up): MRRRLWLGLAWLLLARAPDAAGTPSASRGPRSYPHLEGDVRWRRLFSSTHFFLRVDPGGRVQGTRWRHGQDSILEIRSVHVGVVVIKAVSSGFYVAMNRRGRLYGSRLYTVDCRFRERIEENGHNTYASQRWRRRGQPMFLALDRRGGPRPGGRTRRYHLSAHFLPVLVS
# Ecoli growth: E. coli growth inhibition, primary screen, OD600; 330,000 tested, 0.21% active; Escherichia coli growth, 23 h; stronger effect = lower value; OD600 absorbance (no concentration beside the values);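 active = OD600 absorbance below the run mean of sample wells minus 3.6 SD, in any replicate, cut at about 0.56 in these data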;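 note: stock transfer was 300 nL into about 60 µL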
# Vif TR-FRET: inhibitors of Vif binding to APOBEC3G peptide, primary screen, biochemical, TR-FRET, GST-Vif 1-94, biotin-A3G peptide, dose response retest (AID 1117319); 260,000 tested, 0.57% active; Virion infectivity factor (Human immunodeficiency virus type 1 group M subtype B (isolate …; TR-FRET GST-Vif / biotin-A3G peptide binding; higher % means a stronger effect; test concentration not given here; strong numbers were not always called active; inhibition, %, or IC50 in µM where a hit was titrated;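 active = above the screen mean plus three standard deviations and confirmed in dose response; inconclusive = results disagree or hit not tested in dose response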;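 note: Vif residues 1-94 fused to GST binding biotinylated APOBEC3G peptide 110-148; 0% = full assay without inhibitor and 100% = GST in place of GST-Vif; retest series ran down from 100 µM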
# UCH37 inh: inhibitors of human UCH37 deubiquitinase, primary screen, biochemical, Ub-AMC cleavage, fluorescence; 330,000 tested, 0.33% active; Ubiquitin carboxyl-terminal hydrolase isozyme L5 (Homo sapiens), Q9Y5K5; inhibition, % (no concentration beside the values); AID 588478, 2011; purified proteasome/UCH37;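 active = mean of two replicates above 20%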;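 note: 0% = compound-free wells with enzyme and 100% = wells lacking proteasome; stock transfer was 100 nL into about 20 µL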
# Target sequence (Q9Y5K5 whole entry, looked up): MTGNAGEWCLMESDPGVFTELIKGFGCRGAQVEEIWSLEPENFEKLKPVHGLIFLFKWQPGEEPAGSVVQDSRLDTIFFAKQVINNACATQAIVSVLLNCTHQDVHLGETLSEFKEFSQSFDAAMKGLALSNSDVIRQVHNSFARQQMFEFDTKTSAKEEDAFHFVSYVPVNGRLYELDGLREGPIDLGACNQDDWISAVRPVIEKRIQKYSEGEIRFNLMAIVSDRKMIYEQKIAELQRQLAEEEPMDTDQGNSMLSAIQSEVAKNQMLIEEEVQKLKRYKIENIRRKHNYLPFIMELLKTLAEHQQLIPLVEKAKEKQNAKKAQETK
#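 Schedule: 30 min plus 25 min, room temperature / Material: human UCH37 within purified proteasomes / Technique: AMC fluorescence intensity at 355/460 nm / Buffer or medium: pH 7.4 Tris-HCl (50 mM) with ovalbumin, ATP-MgCl2, DTT / Controls: wells without proteasome as full block, compound-free enzyme plus substrate as uninhibited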
# * = called active by the depositor; i = inactive; u = inconclusive; x = not tested or not shown; + = active, no number; & = joins results of further samples.
SMILES,HNF4A DNA FP,MLL AF4-AF9 inh,RanGTP-Impb inh,FGF22 binding,Ecoli growth,Vif TR-FRET,UCH37 inh
Cc1cccc(-n2c(SCc3cc(=O)n4ccsc4n3)nc3ccccc32)c1,-3.8,x,-0.2,x,0.66,19%,-1.1
CC(=O)C1(C)C(=O)N(c2ccc(F)cc2)C(=O)N1c1ccc(F)cc1 (stereo unspecified),-0.8,1.5,x,i,x,-4%,x
CCOc1cc2[nH]c(=S)n(CCN3CCC(C)CC3)c(=O)c2cc1OCC,1.9,x,-3.0,x,0.73,-2%,2.8
O=C(CSc1ccccc1)NCc1ccccc1,1.5,-3.8,-0.4,i,0.62,x,3.8
Nc1nc(CSc2ccccc2)nc(N2CCCCC2)n1,1.7,0.2,1.7,i,0.67,-1%,3.0
O=S(=O)(/N=C(/c1ccccc1)N1CCCCC1)c1ccccc1,-0.6,x,-0.3,x,x,7%,x
CCN1CCN(C(C)C(=O)NC2CCCCC2)CC1 (stereo unspecified),1.6,-0.4,-0.2,i,0.66,u,0.7
NS(=O)(=O)c1ccc(CCNC(=O)C2CCCCC2)cc1,2.6,x,-1.2,x,0.74,3%,4.0
COc1ccc(CNC[C@@H](CCCCN(C)Cc2ccc(OC)cc2)N2C[C@H](c3ccccc3)N(CCc3ccc(Cl)c(Cl)c3)C(=O)C2=O)cc1,2.5,x,4.4,x,x,x,4.6
COc1ccc(N=C2CC(C)(C)CC(=O)/C2=C(/O)c2ccccc2)cc1,-1.7,-0.5,-1.9,i,0.69,4%,4.0
COc1cc2c(cc1OC)-c1nnnn1C(C)(C)C2,0.8,x,5.7,x,0.71,7%,1.7
Cc1sc2nc(C)n(/N=C/c3ccc(O)cc3)c(=O)c2c1C,3.0,x,u,x,x,16%,x
COc1ccc2cc(C(C)C(=O)N3CCC(C)CC3)ccc2c1 (stereo unspecified),-1.0,-7.7,0.2,i,0.66,x,1.4
CC1CC(C)CN(CC(=O)N2CCCc3c2c(=O)oc2ccc(OCc4ccccc4)cc32)C1 (stereo unspecified),-0.1,x,-1.2,x,0.72,3%,2.1
COc1ccc(CC(=O)N2CCN(c3ccccc3F)CC2)cc1OC,0.3,-2.1,2.7,i,x,27%,x
CCNC(=O)COc1ccc(-c2ccccc2)cc1,1.1,x,-2.7,x,0.66,-8%,4.9
COc1ccc(-c2[nH]c(-c3ccc(F)cc3)nc2SCC(=O)NCc2ccco2)cc1OC,-3.8,2.1,u,i,0.71,-2%,-0.8
COc1ccccc1NC(=O)Nc1ccc2c(c1)nnn2C,3.3,x,-4.1,x,0.69,13%,19
CC1CCCCC12NC(=O)N(CC(=O)NCc1ccccc1Cl)C2=O (stereo unspecified),-0.1,-1.3,x,i,0.71,3%,3.0
CC12CCC3c4ccc(O)c([N+](=O)[O-])c4CCC3C1CCC2=O (stereo unspecified),-18,1.5,x,i,x,2%,x
Cc1ccc(NC(=O)Cc2ccc3c(c2)CCCC3)cc1C,-2.1,-42,-3.6,i,0.7,-12%,1.7
Cc1ccc(/C=C(/NC(=O)c2ccccc2)C(=O)NCCc2c[nH]c3ccccc23)o1,0.0,x,7.2,x,0.75,9%,0.0
CCOC(=O)Nc1ccc2c(c1)N(C(=O)CCN1CCN3CCCC3C1)c1ccccc1CC2 (stereo unspecified),-2.2,x,2.1,x,0.65,3%,3.6
Cc1ccc(CNC(=O)c2ccc(S(=O)(=O)N3CCCC3)cc2)cc1,1.3,-4.8,x,i,x,1%,x
O=C(/C=C/c1ccccc1Cl)NCc1ccccc1,-0.7,x,-1.5,x,0.74,8%,0.9

# Continued (4 carried over from the part before).
SMILES,HNF4A DNA FP,MLL AF4-AF9 inh,RanGTP-Impb inh,FGF22 binding,Ecoli growth,Vif TR-FRET,UCH37 inh
Cc1ccc(/C=C(/NC(=O)c2ccccc2)C(=O)NCCc2c[nH]c3ccccc23)o1,0.0,x,7.2,x,0.75,9%,0.0
CCOC(=O)Nc1ccc2c(c1)N(C(=O)CCN1CCN3CCCC3C1)c1ccccc1CC2 (stereo unspecified),-2.2,x,2.1,x,0.65,3%,3.6
Cc1ccc(CNC(=O)c2ccc(S(=O)(=O)N3CCCC3)cc2)cc1,1.3,-4.8,x,i,x,1%,x
O=C(/C=C/c1ccccc1Cl)NCc1ccccc1,-0.7,x,-1.5,x,0.74,8%,0.9
Cc1nnc(SCC(=O)Nc2ccccc2)n1CCc1ccccc1,-0.3,7.6,6.2,i,0.68,-1%,1.2
CCCOc1ccc(NC(=O)CC2C(=O)N(CC)C(=S)N2CCCN2CCN(Cc3ccccc3)CC2)cc1 (stereo unspecified),2.9,16,-3.0,i,0.7,8%,0.6
COc1ccccc1-c1cc(C2CC2)nc(N)c1C#N,-1.0,x,0.9,x,0.68,-9%,-29
O=C(CS(=O)(=O)Cc1ccccc1)Nc1ccc2c(c1)OCO2,-3.1,2.8,-0.2,i,0.7,3%,-0.4
Nc1cc(Cl)cc2c1-c1ccc(Cl)cc1C2O (stereo unspecified),0.1,-0.9,x,i,0.66,-8%,-2.5
O=C(OCc1cn([C@@H]2C[C@H](c3ccc(Cl)cc3)N(Cc3cccs3)C[C@H]2O)nn1)c1ccccc1,-0.2,-3.1,x,i,x,-8%,x
COc1ccccc1N1CCN(S(=O)(=O)CCNC(=O)c2ccco2)CC1,7.3,-1.9,x,i,x,x,x
CC1CCC2C(=O)N(c3cccc(C(=O)Nc4ccc(F)cc4)c3)C(=O)C2C1 (stereo unspecified),-2.3,-0.8,4.6,i,0.72,x,0.6
CC(O)[C@H](NC(=O)C1(c2ccccc2)CCN(C(=O)OC(C)(C)C)CC1)C(=O)O (stereo partly specified),-0.4,x,u,x,0.7,u,-0.9
COc1cc(S(=O)(=O)N2CCOCC2)cc(C(=O)OCC(=O)NC2CCCCC2)c1OC,1.5,2.2,x,i,0.7,-10%,-0.8
Cn1c(=O)c2c(nc(CN3CCN(c4ccccc4)CC3)n2Cc2ccccc2Cl)n(C)c1=O,0.7,x,1.8,x,0.73,1%,4.9
O=C(N/N=C/c1ccc(OC(=O)c2cccs2)cc1)c1ccc(F)cc1,-2.7,x,1.5,x,x,-2%,x
c1ccc(-n2nnc3c(N4CCOCC4)ncnc32)cc1,0.4,x,2.9,x,0.68,2%,0.4
O=C(O)C1Nc2ccc(Br)cc2C2C=CCC12 (stereo unspecified),-66,x,-6.5,x,0.69,1.6µM*,11
Cc1ccn(CCC(=O)N2CCCC(CCC(=O)N3CCN(c4ccccn4)CC3)C2)n1 (stereo unspecified),-1.9,-1.3,0.3,i,0.68,2%,0.2
O=C(CCS(=O)(=O)c1ccc(Br)cc1)NCCC1=CCCCC1,-13,-5.8,-0.7,i,0.73,x,6.1
Nc1ccc(C(=O)Nc2ccc(OC(F)(F)C(F)F)c(NC(=O)c3ccc(N)cc3)c2)cc1,-1.7,5.8,1.4,+,0.69,9%,0.8
Fc1ccc(/C=N/Nc2nn[nH]n2)cc1,-1.2,-1.6,-1.2,i,x,6%,x
OC[C@@H]1CN(Cc2cccs2)C[C@H](n2cnc3c(NCc4ccco4)ncnc32)O1,2.4,2.7,x,i,x,x,x
c1ccc(-c2nnsc2-c2ncc[nH]2)cc1,-1.0,1.2,-3.6,i,0.7,-5%,4.0
COC(=O)CSc1nnc(-c2cccnc2)n1-c1cc(OC)cc(OC)c1,-1.5,x,1.4,x,0.69,3%,1.1
Cn1nnnc1SCC(=O)Nc1cc(C(F)(F)F)ccc1N1CCOCC1,-2.1,0.1,-0.9,i,0.74,x,1.2
Cc1ccc(OCC(=O)Nc2ccc(CN3CCOCC3)cc2)cc1,0.7,0.2,-0.4,i,0.64,x,1.5
Cc1cc(C)c2nc(N3CCC(C(=O)N4CCCC4)CC3)sc2c1,-3.3,4.9,-0.7,i,0.65,8%,-1.0
C[C@H]1CN([C@@H](C)CO)C(=O)CCCn2cc(nn2)CO[C@@H]1CN(C)S(=O)(=O)c1ccc(Cl)cc1,-3.0,0.5&-1.0&-2.4,x,i,x,x,x
# (more compounds)
SMILES,HNF4A DNA FP,MLL AF4-AF9 inh,RanGTP-Impb inh,FGF22 binding,Ecoli growth,Vif TR-FRET,UCH37 inh
CCCOc1ccc(C(=O)NCCC(=O)NCCCC(=O)OCC)cc1,1.0,x,-6.7,x,0.67,3%,-0.4
CCCCN1C(=S)NC[C@@H]1c1ccccc1,0.0,x,-0.4,i,x,-5%,2.5
CC/C(=N\Nc1nncc2ccccc12)c1ccc(F)cc1,0.1,3.8,-1.9,i,x,x,x
O=C(NCCN1CCOCC1)/C(=C\c1ccccc1Cl)NC(=O)c1ccccc1,-1.5,-0.7,1.1,i,0.63,3%,4.1
CC(=O)NCC(=O)N1CCCC(C(=O)c2ccc(-c3ccccc3)c(F)c2)C1 (stereo unspecified),4.4,9.4,2.9,i,0.64,-2%,2.5
CC(=O)Nc1ccc2c(c1)C(=O)N(c1ccc(C)cc1)C2=O,-1.4,x,u,x,0.66,-4%,-6.2
COC(=O)c1ccccc1NC(=O)c1sc(Cl)nc1C,0.7,-1.6,-3.4,i,0.67,x,4.9
Cc1ccc(SCc2ccc(C(=O)NCc3ccncc3)cc2)cc1,1.1,u,4.5,i,0.62,-2%,4.5
COc1ccc(CCNC(=O)c2ccc([N+](=O)[O-])cc2Cl)cc1OC,4.1,-4.4,-3.0,i,0.67,x,2.8
CC(=O)NCCNC(=O)c1ccc(NC2=NC3CS(=O)(=O)CC3S2)cc1 (stereo unspecified),0.5,-2.3,7.8,i,0.68,1%,4.4
COc1ccc(N2CCN(C(=O)c3cc4c(s3)-c3ccccc3S(=O)(=O)C4)CC2)cc1,-0.9,2.1,1.3,i,0.69,x,2.9
CCCCN=CC1=C(O)CC(c2ccccc2)CC1=O (stereo unspecified),5.5,1.9,3.6,i,0.67,4%,1.0
C/C(=N/NC(=O)c1sc(NS(=O)(=O)c2ccccc2)nc1C)c1sc(N)nc1C,1.8,1.8,0.7,i,x,5%,x
CCC(CO)N=C1CC(C)(C)CC(=O)/C1=C(/O)CCCN1C(=O)c2ccccc2C1=O (stereo unspecified),1.2,-0.1,u,i,x,x,x
Cc1ccc(NC(=O)c2c(C)nc3sc(C(=O)NC4CCCC4)c(N)c3c2-c2ccco2)c(C)c1,15,-2.2,u,i,0.73,x,-13
CN1CCN(Cc2c(O)c(Cl)cc3c(-c4ccccc4)cc(=O)oc23)CC1,-3.0,x,-0.4,x,0.75,1%,-65
COCCNC(=O)COc1ccccc1C,0.7,x,5.5,x,0.77,-4%,-0.7
Cc1cccc(/C(N)=N/OC(=O)c2ccco2)c1,-2.3,x,3.5,x,x,5%,-0.1
O=C(Cc1cccc(F)c1F)NC1CCCN(Cc2ccc(Cl)cc2)C1 (stereo unspecified),2.1,2.5,-2.5,i,x,0%,x
CCOCCCNS(=O)(=O)c1cc(Br)cc2c1N(C(=O)C1CC1)CC2,-0.7,x,2.5,x,0.69,3%,1.2
CCn1cc(C(=O)NCCO)c(=O)c2cc(F)c(N3CCN(C)CC3)cc21,-1.0,-0.2,-1.0,i,0.049*,-5%,-55
CSc1cccc(NC(=O)C2CC(=O)N(Cc3ccccc3)C2)c1 (stereo unspecified),-0.8,-0.2,-1.4,i,0.7,x,5.9

# Screens (PubChem BioAssay)

# Only part of the results is shown, so the mix of outcomes need not match the whole.
